From PubChem
GIRK2 activ – activators of human GIRK2 potassium channels. HEK293-GIRK2 thallium flux, Thallos fluorescence. calls only for hits at 25 µM. 63,000 tested, 0.05% active. AID 1259325, 2017;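 active = among the strongest 0.2% of first-round signals and kept after retests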;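 note: first round at about 10 µM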
Target sequence (P48051 whole entry, looked up): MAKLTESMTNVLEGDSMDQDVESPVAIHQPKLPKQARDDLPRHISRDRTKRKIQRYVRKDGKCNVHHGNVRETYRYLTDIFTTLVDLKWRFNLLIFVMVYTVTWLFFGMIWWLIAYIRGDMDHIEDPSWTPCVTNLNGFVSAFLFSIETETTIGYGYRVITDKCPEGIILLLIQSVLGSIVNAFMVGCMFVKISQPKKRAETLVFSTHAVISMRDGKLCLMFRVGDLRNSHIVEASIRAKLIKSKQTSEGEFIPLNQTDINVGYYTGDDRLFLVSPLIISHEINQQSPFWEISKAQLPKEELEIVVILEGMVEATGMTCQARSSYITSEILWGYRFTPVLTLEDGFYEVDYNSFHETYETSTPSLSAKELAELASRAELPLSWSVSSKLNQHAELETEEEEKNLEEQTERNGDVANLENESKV
Calls only; i = inactive.

canonical_smiles	GIRK2 activ
COc1ccc(-c2noc(Cn3cnc4c(nnn4Cc4ccccc4C)c3=O)n2)c(OC)c1	i
Cc1cc(C)cc(N2CC(c3nc4ccccc4n3Cc3ccccc3)CC2=O)c1 (centres undefined)	i
COCCN1CCC(NC(=O)c2cccc(Br)c2)CC1	i
COC(/C=C/CC/C=C/C(=O)O)C(O)C(C)/C=C(C)/C=C(\C)C(=O)CCCC1CC(=O)NC(=O)C1 (centres undefined)	i
CC(O)(CNC(=O)C(=O)Nc1ccon1)c1ccco1 (centres undefined)	i
CC(=O)c1cccc(Nc2c(C(=O)N3CCCCC3C)cnc3nc(C)ccc23)c1 (centres undefined)	i
Cc1c(C)n2c3c(=O)n(CCc4ccccc4)c(=O)n(C)c3nc2n1CC(C)C	i
CCOCCCn1c(SCC(=O)Nc2ncn[nH]2)nc2ccccc2c1=O	i
O=C(Nc1ccc2c(=O)c3ccccc3oc2c1)c1cccc([N+](=O)[O-])c1	i
COCC(=O)Nc1cc(C)nn1-c1nc(-c2ccc(OC)cc2)cs1	i
O=C(Cn1ccn2nc(-c3ccccc3)cc2c1=O)N1CCN(c2ccccc2F)CC1	i
CCOc1ccc(-c2noc(Cn3c(=O)n(C(C)C)c(=O)c4ccccc43)n2)cc1OC	i
O=C(NCCc1ccccc1)c1ccc(Cn2c(=S)[nH]c3cc4c(cc3c2=O)OCO4)cc1	i
COc1ccc(-c2csc3c(=O)n(CC(=O)Nc4ccc(F)cc4Cl)cnc23)cc1	i
CN(CC(=O)N1CCC2(CC1)OCCO2)c1nc2ccccc2s1	i
COc1ccc(CCCOC(Cn2ccnc2)c2ccc(OC)cc2)cc1 (centres undefined)	i
CC1CCN(S(=O)(=O)c2nn(C)cc2C(=O)NCc2ccc3c(c2)OCO3)CC1	i
COc1ccc(-c2coc3cc(OCc4ccccc4F)ccc3c2=O)cc1OC	i
O=C(CCn1c(=S)[nH]c2cc3c(cc2c1=O)OCO3)NCCC1=CCCCC1	i
COc1ccc(NC(=O)CSc2ccc(-c3nc(-c4ccccc4)no3)cn2)cc1	i
Cc1nc(OCC(=O)Nc2cccc(Br)c2)c2ccccc2n1	i
OC(Cn1cncn1)(Cn1cncn1)c1ccc(F)cc1F	i
Cc1noc(Cc2ccccc2NC(=O)NC(C)(C)C)n1	i
Cc1ccc(C)c(Cn2c(C3CCCO3)nc3ccccc32)c1 (centres undefined)	i
Cc1cc(C)n2nc(C(=O)NCc3sc(-c4cccs4)nc3C)nc2n1	i
COc1c(C)cnc(Cn2cccc(S(=O)(=O)N3CCCC3)c2=O)c1C	i
O=C(/C=C/c1ccco1)Nc1cnc(N2CCOCC2)nc1	i
Cc1nc(Nc2ccc(NC(=O)COc3ccc(-n4cccn4)nn3)cc2)cc(N(C)C)n1	i
COc1cccc(COc2coc(C(=O)NCCc3ccccc3OC)cc2=O)c1	i
O=C(CN1CC(c2nc(-c3cccs3)no2)C1)NCc1ccco1	i
Cn1c(=O)c2c(nc(N3CCN(c4ccccc4)CC3)n2CCCc2ccccc2)n(C)c1=O	i
COc1ccc(NC(=O)COc2nc(C)nc3ccccc23)c(OC)c1	i
NC(=O)C1CCN(S(=O)(=O)C2CC2)CC1	i
O=C(Cn1nc(-c2cccs2)ccc1=O)Nc1ccc(F)c([N+](=O)[O-])c1	i
Cc1ccc(-n2nnc(C(=O)Nc3ccc4c(c3)OCCO4)c2-c2cccnc2)cc1C	i
COc1cc(C)c(S(=O)(=O)NCCc2ccccc2)cc1C	i
O=C(NCc1ccc(F)cc1)N1CCN(Cc2nnnn2-c2ccc(F)c(F)c2)CC1	i
O=C(CN1C(=O)CC(c2cccs2)CC1=O)OCc1ccccc1	i
O=C(O)CC(CC(=O)NCC1CCN(C(=O)COc2ccccc2)CC1)c1cccs1 (centres undefined)	i
CCOc1ccc(-c2ccc(OCCNC(=O)COc3ccc(Cl)cc3)nn2)cc1	i
CCOC(=O)CCC(=O)N1CCN(c2ncnc3c2nnn3-c2ccccc2)CC1	i
CCOc1ccc(NC(=O)N(CCc2cccs2)Cc2ccco2)cc1	i
COc1ccc(C(=O)Oc2ccc3c(=O)c(-c4ccccc4)coc3c2)cc1	i
COc1cc(OC)c(NC(=O)Cn2c(=O)nc(-c3ccccc3)c3ccccc32)cc1Cl	i
CCOc1ccc(NC(=O)Cn2c(=O)c(CNc3ccc(C)cc3)cc3cc4c(cc32)OCCO4)cc1	i
CCc1cccc2sc(N3CCN(C(=O)c4cc(C)oc4C)CC3)nc12	i
CCOc1ccc(S(=O)(=O)N2CCCC(C)C2)c2ccccc12 (centres undefined)	i
Cc1cccc(NC(=O)Cn2cnc3sc(-c4nc(-c5ccccc5Cl)no4)c(C)c3c2=O)c1	i
CN1CCN(c2ncc(NC(=O)Nc3cccc(Cl)c3)cn2)CC1	i
CC(C)(C)C(=O)Oc1ccc(/C=C/c2ccccn2)cc1	i

The list continues:
canonical_smiles	GIRK2 activ
O=C(NCC1CCN(Cc2ccsc2)CC1)c1cccc2ccccc12	i
Cc1cc(C(=O)Nc2nc3c(s2)CN(C(=O)C2CC=CCC2)CC3)no1 (centres undefined)	i
Cc1c(Cl)cccc1-n1c(C)cn2c3c(=O)n(CC(N)=O)c(=O)n(C)c3nc12	i
COc1ccc(CC(=O)Nc2ccc3c(c2)CCCN3C(=O)c2ccccc2)cc1	i
Cc1ccc(NC(=O)Cc2c(C)nc(SCc3ccc(F)cc3)[nH]c2=O)cc1C	i
COc1ccc(CCn2c(C)c(C)n3c4c(=O)n(CCCO)c(=O)n(C)c4nc23)cc1OC	i
Cc1cn2c3c(=O)n(Cc4ccccc4F)c(=O)n(C)c3nc2n1C(C)c1ccccc1 (centres undefined)	i
C=C(C)CC(NC(=O)C(CO)NC(=O)CCC)C(=O)C(C)C (centres undefined)	i
CS(=O)(=O)c1ccc(Nc2nc(CC(=O)NCc3ccco3)cs2)cc1	i
CC1CCC2(NC1)OC1C(O)C3C4CCC5CC(O[C@@H]6O[C@H](CO)[C@@H](O)[C@H](O)[C@H]6O[C@@H]6O[C@@H](C)[C@H](O)[C@@H](O)[C@H]6O)CCC5(C)C4CCC3(C)C1C2C (some centres undefined)	i
COc1cccc(-n2nnc(-c3nc(C)c(C(=O)NCc4ccc(C)cc4)s3)c2C)c1	i
O=C(/C=C/c1ccc2c(c1)OCO2)N1CCC2(CC1)OCCCO2	i
Clc1cc(-c2ccccc2)ncn1	i
Cc1cc(C)cc(NC(=O)Cn2nc3n(C)c(=O)c4c(c(-c5ccccc5)cn4C)n3c2=O)c1	i
Cc1ccc(C(=O)NC2CC2)cc1-c1ccc2[nH]ncc2c1	i
Cc1nn(-c2ccccc2)c(C)c1N1CCN(C(=O)c2ccc3nsnc3c2)CC1	i
O=C(NCc1ccco1)c1cccc(NS(=O)(=O)c2cccc(Cl)c2)c1	i
O=C(NCc1cccnc1)c1c[nH]c2ccc(Cl)cc2c1=O	i
O=C(CC(c1ccccc1)c1ccccc1)NCC(O)c1ccoc1 (centres undefined)	i
CCCS(=O)(=O)N1CCCc2cc(NS(=O)(=O)c3cc(C)ccc3OCC)ccc21	i
Cn1nc(-c2ccc(F)cc2)cc1C(=O)NCCCN1CCN(c2ccccc2)CC1	i
Cc1cc(C)n(-c2ccc(C(=O)Nc3nc4ccc(Cl)cc4s3)nn2)n1	i
CSc1ccccc1NC(=O)Cc1csc(Nc2cccc(C)n2)n1	i
Cc1ccc(S(=O)(=O)Nc2ccc(-c3ccc(NS(=O)(=O)c4ccc(C)cc4)cc3)cc2)cc1	i
COc1cc2c(cc1OC)CN(C(=O)c1nnn(-c3ccc(C(F)(F)F)cc3)n1)CC2	i

Two records picked at random from the list so far:
canonical_smiles	GIRK2 activ
Clc1cc(-c2ccccc2)ncn1	i
O=C(NCc1ccco1)c1cccc(NS(=O)(=O)c2cccc(Cl)c2)c1	i

New compounds follow
canonical_smiles	GIRK2 activ
Cc1cccc(CC(=O)N2CCN(c3cc(N4CCOCC4)ncn3)CC2)c1	i
CN(C)CCCN1C(=O)C(O)=C(C(=O)c2cc3ccccc3o2)C1c1ccc(F)cc1 (centres undefined)	i
CC(NC(=O)/C(C#N)=C1\N=C(NC(=O)c2ccc(F)cc2)c2ccccc21)c1ccccc1 (centres undefined)	i
CC(C)Oc1ccc(C2C(=C(O)c3ccc(F)cc3)C(=O)C(=O)N2Cc2cccnc2)cc1 (centres undefined)	i
Cc1ccc(N2CCCC(C(=O)Nc3ccc(F)c(Cl)c3)C2)nn1 (centres undefined)	i
Cc1cccc(Oc2nccn3c(=O)n(CC(=O)N4CCN(c5ccc(F)cc5)CC4)nc23)c1C	i
O=C(CCS(=O)(=O)c1ccccc1)N(CCn1cccn1)c1nc2ccccc2s1	i
COc1cccc(C(=O)NCC2(c3cccs3)CCOCC2)c1OC	i
COc1ccc(-n2nnc(C(=O)Nc3nc4ccc(S(C)(=O)=O)cc4s3)n2)cc1	i
COc1ccc(-c2c(NC(=O)c3ccco3)oc3ccccc3c2=O)cc1	i
COc1ccc(/C=C/C(=O)O)cc1S(=O)(=O)N1CCCCCC1	i
CCOc1ccc(NC(=O)CSc2ncc3c(n2)-c2ccccc2N(C)S3(=O)=O)cc1	i
COc1ccc(CCC(=O)NCC#CCOc2ccc3c(c2)OCO3)cc1	i
Cc1nnc(CNC(=O)c2cc(-c3ccco3)on2)o1	i
COc1ccc(C(=O)/C=C/c2ccc(OC)c(OC)c2)c(O)c1	i
COc1cc(S(=O)(=O)N2CCN(c3cccc(C(F)(F)F)c3)CC2)c(C)cc1C	i
COc1ccc(S(=O)(=O)Nc2ccc3c(c2)CCCN3S(=O)(=O)c2ccccc2)cc1C	i
O=C(NCC1CCCO1)C1CCCN(Cc2nc(-c3cccs3)no2)C1 (centres undefined)	i
COc1ccc(-c2cc(N3CCN(C(=O)C(C)C)CC3)ncn2)cc1	i
Cc1cc(C)n(CC2CCN(S(=O)(=O)c3ccc(OC(F)(F)F)cc3)CC2)n1	i
Cn1cc(-c2cccs2)nc1CCNC(=O)COc1cccc2c1OC(C)(C)C2	i
CCOC(=O)COc1ccc2c(c1)O/C(=C\c1ccccc1F)C2=O	i
O=c1n(Cc2nc(-c3ccc(Cl)cc3)no2)nc2ccc(-c3ccccc3)nn12	i
O=[N+]([O-])c1cc(-c2nc3nc4ccccc4nc3n2Cc2ccco2)cc([N+](=O)[O-])c1	i
O=C(Nc1cccc(N2CCCS2(=O)=O)c1)c1c(F)cccc1Cl	i

Three of the compounds above, as labelled records:
CC(O)(CNC(=O)C(=O)Nc1ccon1)c1ccco1 (centres undefined)
  GIRK2 activ = i
CC(=O)c1cccc(Nc2c(C(=O)N3CCCCC3C)cnc3nc(C)ccc23)c1 (centres undefined)
  GIRK2 activ = i
Cc1c(C)n2c3c(=O)n(CCc4ccccc4)c(=O)n(C)c3nc2n1CC(C)C
  GIRK2 activ = i

Returning to the listing with the four entries that preceded the break.
canonical_smiles	GIRK2 activ
CCOC(=O)COc1ccc2c(c1)O/C(=C\c1ccccc1F)C2=O	i
O=c1n(Cc2nc(-c3ccc(Cl)cc3)no2)nc2ccc(-c3ccccc3)nn12	i
O=[N+]([O-])c1cc(-c2nc3nc4ccccc4nc3n2Cc2ccco2)cc([N+](=O)[O-])c1	i
O=C(Nc1cccc(N2CCCS2(=O)=O)c1)c1c(F)cccc1Cl	i
CC1Oc2ccccc2OC1C(=O)N1CCC(Oc2ccc(C(F)(F)F)cn2)CC1 (centres undefined)	i
C=CCn1c(=O)[nH]c2cc(C(=O)NCc3ccccc3)ccc2c1=O	i
Cn1c(=O)[nH]c(=O)c2c1nc1n2CC(O)CN1c1cccc2ccccc12 (centres undefined)	i
O=C(Nc1cnoc1)c1ccc(Oc2ccccc2)cc1	i
COc1cc(S(=O)(=O)N2CCN=C2c2ccccc2)ccc1Br	i
COc1ccc2cccc(NC(=O)CN3C(=O)CCC3=O)c2n1	i
COC(=O)c1ccc(NC(=O)Cn2cnc3c(-c4ccc(OC)cc4)csc3c2=O)cc1	i
Cc1ccc(-n2nnc3c(N4CCN(C(=O)Cc5ccc(Cl)cc5)CC4)ncnc32)cc1	i
CN(C)c1cccc(C(=O)NCCC(O)C2CC2)c1 (centres undefined)	i
Cc1cccc(-c2noc(CS(=O)(=O)c3cc(C)c(C)cc3C)n2)c1	i
CS(=O)(=O)CCNCc1cc(-c2cc3c(Nc4ccc(OCc5cccc(F)c5)c(Cl)c4)ncnc3s2)cs1	i
COc1ccc(N2CCN(CC(=O)NC(C)C)C2=O)cc1	i
O=C(NC1CCN(C(=O)c2cc(-c3cccc(Cl)c3)n[nH]2)CC1)c1cccc(F)c1	i
Cc1cc(C(=O)N2CCN(CCNC(=O)c3ccc([N+](=O)[O-])o3)CC2)no1	i
CCN(CC)CCNc1nc2c(c(=O)[nH]c(=O)n2C)n1CC(=O)c1ccc(OC)cc1	i
Cc1ccc(-n2nnc(C(=O)Nc3ccccc3C#N)c2C)cc1C	i
COc1ccc(C)c2sc(N3CCN(C(=O)Nc4cccs4)CC3)nc12	i
CC(C)c1cc(=O)[nH]c(-n2nc(-c3cccs3)cc2NC(=O)c2ccccc2C(F)(F)F)n1	i
O=C(CCCc1ccccc1)NCc1cc(-c2cccs2)n(C2CCCC2)n1	i
CC1Cc2ccccc2N1c1ncc([N+](=O)[O-])c(N)n1 (centres undefined)	i
Cc1cc(C)n(-c2cc(SCC(=O)NCc3ccccc3Cl)ncn2)n1	i
COC(=O)c1ccc(NC(=O)CN2CC(c3nc(-c4ncccn4)no3)C2)cc1	i
O=C(Cn1cnc2ccccc2c1=O)Nc1cc(-n2cccn2)ncn1	i
Cc1ccc2nc(C3CN(C(=O)c4cc(C5CC5)on4)C3)[nH]c2c1	i

This is a subset; count on the stated rates, not on these rows.
